VDR inh – Inhibitors of the vitamin D receptor (VDR): qHTS; Vitamin D3 receptor (Homo sapiens), P11473; VDR-SRC2-3 peptide fluorescence polarization, 2 h; Potency, µM, for the others: max response, negative = inhibition, most hits filed as inhibitors; 0.93% of 400,000 active; AID 504847, 2011; active means well fitted inhibition curve with a large enough effect; inconclusive means small, poorly fitted or top-dose-only effect, or another doubt; inactive means no such curve, though single readings can be large or run the other way; further: series mostly up to about 120 µM
Target sequence (P11473 whole entry, looked up): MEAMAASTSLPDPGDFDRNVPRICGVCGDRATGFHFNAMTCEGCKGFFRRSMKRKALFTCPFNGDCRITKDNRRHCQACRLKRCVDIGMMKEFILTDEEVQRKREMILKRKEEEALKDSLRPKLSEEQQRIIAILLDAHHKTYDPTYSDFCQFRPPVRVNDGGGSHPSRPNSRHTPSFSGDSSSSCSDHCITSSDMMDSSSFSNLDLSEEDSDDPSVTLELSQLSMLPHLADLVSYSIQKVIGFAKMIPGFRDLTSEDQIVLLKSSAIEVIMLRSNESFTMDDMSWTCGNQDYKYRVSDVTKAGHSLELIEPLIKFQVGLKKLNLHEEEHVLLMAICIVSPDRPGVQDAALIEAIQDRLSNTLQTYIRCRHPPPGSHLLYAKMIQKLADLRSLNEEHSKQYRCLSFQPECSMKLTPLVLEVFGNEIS
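Compounds are added to VDR with labelled SRC2-3 coactivator peptide and held 2 h at room temperature. Inhibition of the VDR–peptide interaction is then read as a change in fluorescence polarization.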
* hit, by the source's call; ? = inconclusive; & = joins results of further samples; ! = not confirmed by another sample; [ ] = remark or other dose. On the % scale 0 is the no-effect control and ±100 the full control effect; potency means the concentration at half of the fitted maximal effect. A portion of the library, so the mix of outcomes need not match the whole.

1	NC(=O)c1ccc(N2CCCCC2)c(N2C(=O)C3CC=CCC3C2=O)c1 (centres undefined)
  VDR inh: 6.7%
2	Clc1cccc2sc(N3CCN(c4ccccc4)CC3)nc12
  VDR inh: -9.1%
3	NC(=O)C1CCN(C(=O)CN(c2cccc(C(F)(F)F)c2)S(=O)(=O)c2ccccc2)CC1
  VDR inh: 6.1%
4	O=C(NCC1OCCc2ccccc21)c1ccc(NC(=O)c2cccc(Br)c2)cc1 (centres undefined)
  VDR inh: 0.6%
5	CCN(C(=O)COC(=O)c1ccc2c(c1)OCO2)c1c(N)n(Cc2ccccc2)c(=O)[nH]c1=O
  VDR inh: -15.9%
6	CN(C)c1ccc(/C=C/C(=O)c2cccc(Br)c2)cc1
  VDR inh: -18.9%
7	CCOc1ccccc1OCC(=O)NCCc1ccc(S(N)(=O)=O)cc1
  VDR inh: 6.8%
8	COc1cc(C)ccc1OCc1cc(C(=O)N2CCN(C3CCCCC3)CC2)no1
  VDR inh: -12.2%
9	CN1CCCN(S(=O)(=O)c2ccc(O)c(C(=O)O)c2)CC1
  VDR inh: 7.3%
10	CCn1cc(C(=O)O)c(=O)c2cnc(N3CCN(C(=S)NC(=O)c4ccccc4)CC3)nc21
  VDR inh: -4.1%
11	Cc1ccc(-c2cc(C(=O)NCCc3ccc(S(N)(=O)=O)cc3)c3ccccc3n2)cc1
  VDR inh: 15.6%
12	N/C(=N\OC(=O)COc1ccc(Cl)cc1Br)c1ccncc1
  VDR inh: 5.5%
13	CCOC(=O)C1=C(C)NC(C)=C(C(=O)OCC)C1c1ccccn1
  VDR inh: -3.3%
14	CCOC(=O)COn1c(=O)c(=O)n(O)c2ccccc21
  VDR inh: 7.8%
15	COc1ccc(CCN(/C=C2\Sc3ccccc3C2=O)C(C)=O)cc1OC
  VDR inh: 79.5%[activator]

Structural class, those above containing sulfur (seven)
2	Clc1cccc2sc(N3CCN(c4ccccc4)CC3)nc12
  VDR inh: -9.1%
3	NC(=O)C1CCN(C(=O)CN(c2cccc(C(F)(F)F)c2)S(=O)(=O)c2ccccc2)CC1
  VDR inh: 6.1%
7	CCOc1ccccc1OCC(=O)NCCc1ccc(S(N)(=O)=O)cc1
  VDR inh: 6.8%
9	CN1CCCN(S(=O)(=O)c2ccc(O)c(C(=O)O)c2)CC1
  VDR inh: 7.3%
10	CCn1cc(C(=O)O)c(=O)c2cnc(N3CCN(C(=S)NC(=O)c4ccccc4)CC3)nc21
  VDR inh: -4.1%
11	Cc1ccc(-c2cc(C(=O)NCCc3ccc(S(N)(=O)=O)cc3)c3ccccc3n2)cc1
  VDR inh: 15.6%
15	COc1ccc(CCN(/C=C2\Sc3ccccc3C2=O)C(C)=O)cc1OC
  VDR inh: 79.5%[activator]

From no. 1 to 2, as listed above:
1	NC(=O)c1ccc(N2CCCCC2)c(N2C(=O)C3CC=CCC3C2=O)c1 (centres undefined)
  VDR inh: 6.7%
2	Clc1cccc2sc(N3CCN(c4ccccc4)CC3)nc12
  VDR inh: -9.1%

Carrying on.
16	COc1ccc(CCn2c(=S)[nH]c(=O)c3[nH]cnc32)cc1OC
  VDR inh: 1.7%
17	O=C(NC12CC3CC(CC(C3)C1)C2)c1ccc(S(=O)(=O)N2CCOCC2)cc1
  VDR inh: 5.7%
18	O=C1c2ccccc2-c2onc3ccc(Oc4ccccc4)c1c23
  VDR inh: ?
19	Cn1c(=O)n(C)c2cc(N3CCOCC3)c(NS(=O)(=O)c3ccc(Br)cc3)cc21
  VDR inh: -15.1%
20	C=CCSc1nc(C)c(CCC(C)C)c(=O)[nH]1
  VDR inh: -25.5%
21	CC(C)CCn1c(=O)[nH]c2ccccc21
  VDR inh: -22.6%
22	O=C(COc1ccc2ccccc2c1)Nc1ccc2c3c(cccc13)CC2
  VDR inh: 36.8%[activator]
23	O=C1CSC(c2ccc([N+](=O)[O-])cc2)N1Cc1ccccc1 (centres undefined)
  VDR inh: -11.1%
24	OC(CNCc1ccccc1)(c1ccccc1)c1ccccc1
  VDR inh: -16.0%
25	COc1ccccc1NS(=O)(=O)c1cccc(C(=O)OCc2nc3ccccc3s2)c1
  VDR inh: -7.1%
26	Cc1cc(C(=O)CSc2nc(N)cc(=O)[nH]2)c(C)n1Cc1ccco1
  VDR inh: -7.0%
27	Cc1[nH]c2ccccc2c1C(=O)CN1CCSCC1
  VDR inh: -4.8%
28	CC(C)(C)C(=O)N1CCN(c2ncccc2C(F)(F)F)CC1
  VDR inh: -22.4%
29	Nc1cc(N)nc(SCC(=O)NNC(=O)Cc2ccccc2)n1
  VDR inh: 7.6%
30	CN(C(=O)CSc1nnc(COc2ccccc2)o1)c1ccccc1
  VDR inh: 2.3%

31	O=C(CSc1nc2ccccc2nc1Cc1ccc(Cl)cc1)NCCc1ccccc1
  VDR inh: -4.2%
32	COc1ccccc1N1CCN(CCn2c(=O)c3c(c4ccccc4n3C)n(C)c2=O)CC1
  VDR inh: 44.7µM*!
33	O=C(COc1ccccc1F)NC12CC3CC(CC(C3)C1)C2
  VDR inh: ?
34	COc1ccccc1NC(=O)CCCNC(=O)Cn1cnc2sc(C)c(C)c2c1=O
  VDR inh: -13.2%
35	COc1ccc(-c2cc3nc(C)cc(N)n3n2)cc1
  VDR inh: 1.5%
36	COCCn1c(=N)c(C(=O)NC(C)c2ccccc2)cc2c(=O)n3cc(C)ccc3nc21 (centres undefined)
  VDR inh: -6.2%
37	NC(=O)c1cccc(NC(=O)Nc2ccc(Cl)cc2)c1
  VDR inh: 14.0%
38	Cc1cc(C)cc(NC2=NC3(CCCCC3)N=C(N)N2)c1
  VDR inh: -7.2%
39	COc1ccc(NC(=O)CC#N)cc1OC
  VDR inh: -1.7%
40	COc1ccccc1N1CCN(/N=C\C(Br)=C\c2ccccc2)CC1
  VDR inh: 44.7µM*
41	CCN(CC(=O)Nc1cccc(C(C)=O)c1)S(=O)(=O)c1ccc(C)cc1
  VDR inh: -6.1%
42	Cc1ccc(-c2nnc(Nc3ccc(Br)cc3)c3ccccc23)cc1S(=O)(=O)NCC1CCCO1 (centres undefined)
  VDR inh: -17.5%
43	Cc1ccc(NC(=S)N2CCC(NC(=O)c3ccc(F)cc3)CC2)cc1C
  VDR inh: 7.6%
44	Cc1cc(C)nc(Nc2cc([N+](=O)[O-])ccc2C)n1
  VDR inh: -0.5%
45	NNC(=O)C1c2ccccc2Oc2ccccc21
  VDR inh: -28.8%

46	Cc1ccc(NC(=O)C(=O)NCCCN2CCCC2=O)cc1
  VDR inh: -10.7%
47	COC(=O)c1ccccc1S(=O)(=O)Nc1ccc(OC)nc1
  VDR inh: 11.9%
48	O=C(Cn1cnc2ccccc2c1=O)NCCC(=O)Nc1ccc(F)cc1
  VDR inh: 8.4%&1.1%
49	Cc1ccc(S(=O)(=O)N2CCC(C(=O)N3CCN(Cc4ccccc4)CC3)CC2)cc1
  VDR inh: 6.6%
50	CCC(C)(C)NC(=O)C(c1ccc(OC)cc1)N(C(=O)CCC(=O)Nc1cc(C)on1)c1ccc(OC)cc1OC (centres undefined)
  VDR inh: -1.5%
51	COc1cc(/C=C(\NC(=O)c2cc(OC)c(OC)c(OC)c2)C(=O)NC(C(=O)O)c2ccccc2)cc(OC)c1OC (centres undefined)
  VDR inh: -7.6%
52	CN1CCN(C(=O)C2=C[C@@H](c3csc4ccccc34)C[C@@H](OCCCCO)O2)CC1
  VDR inh: -13.2%
53	COc1cc(C2C(C#N)=C(N)Oc3cc(N(C)C)ccc32)cc2c1OCO2 (centres undefined)
  VDR inh: 14.4%
54	O=C1/C(=C/c2ccc(Cl)cc2)SC(=S)N1CCC(=O)N1CCCCC1CCO (centres undefined)
  VDR inh: -7.3%
55	O=C(Nc1cccnc1)c1c(F)c(F)c(F)c(F)c1F
  VDR inh: 11.9%
56	CC(=O)c1ccc(Oc2cc(C)nc(N3CCOCC3)n2)cc1
  VDR inh: -24.8%
57	O=C(Nc1cc(F)ccc1F)C1CCCN1S(=O)(=O)c1cccc2nsnc12 (centres undefined)
  VDR inh: -6.6%
58	Cc1ccc(S(=O)(=O)c2cc3ccccc3oc2=Nc2ccc3c(c2)OCO3)cc1
  VDR inh: -20.8%
59	CN(C)/C=C/C(=O)c1ccc(Cl)cc1
  VDR inh: -22.6%
60	COc1ccccc1CN1C[C@@H]2C[C@@H](c3ccc4nsnc4c3)N3CCC[C@@]23C1=O
  VDR inh: -2.1%

Reformatted with bars between the fields: part of the list above
No. | structure | VDR inh
50 | CCC(C)(C)NC(=O)C(c1ccc(OC)cc1)N(C(=O)CCC(=O)Nc1cc(C)on1)c1ccc(OC)cc1OC (centres undefined) | -1.5%
51 | COc1cc(/C=C(\NC(=O)c2cc(OC)c(OC)c(OC)c2)C(=O)NC(C(=O)O)c2ccccc2)cc(OC)c1OC (centres undefined) | -7.6%
52 | CN1CCN(C(=O)C2=C[C@@H](c3csc4ccccc34)C[C@@H](OCCCCO)O2)CC1 | -13.2%
53 | COc1cc(C2C(C#N)=C(N)Oc3cc(N(C)C)ccc32)cc2c1OCO2 (centres undefined) | 14.4%

More compounds follow:
61	COc1ccc(CN(Cc2ccccn2)S(=O)(=O)c2ccc(-n3cnnn3)cc2)cc1
  VDR inh: -2.3%
62	CCc1ccc(CN2CCC(CO)(CC3CCCCO3)CC2)o1 (centres undefined)
  VDR inh: -4.9%
63	CC1CCN(C(=S)c2cn(Cc3ccccc3F)c3ccccc23)CC1
  VDR inh: -14.4%
64	CC1(C)C(=O)OC(C(=O)c2ccccc2)C2(CCCCC2)C1=O (centres undefined)
  VDR inh: -1.1%
65	O=C(CCn1c2c(c3ccccc31)CCCC2)NNC(=O)c1ccc([N+](=O)[O-])cc1
  VDR inh: -5.0%
66	COc1ccc(Nc2nc(N)nc(CSc3nc4cc(OC)ccc4s3)n2)cc1
  VDR inh: -7.8%
67	Cc1ccc([N+](=O)[O-])cc1NC(=S)NC(=O)c1c(Cl)cnn1C
  VDR inh: 1.4%
68	CCC(=O)N/N=C/c1ccc(-c2ccc(Cl)cc2)o1
  VDR inh: ?
69	O=C(NCC1COc2ccccc2O1)c1ccc(NC(=O)c2ccco2)cc1 (centres undefined)
  VDR inh: 24.7%
70	O=C(c1ccco1)N1CCN(Cc2cc(=O)c(OCc3cccc(Cl)c3)co2)CC1
  VDR inh: 15.8%
71	COc1ccc(Cl)cc1N1C(=O)C2CCCN2C1c1ccc(F)c(F)c1 (centres undefined)
  VDR inh: -3.0%
72	Cn1nc(C(F)(F)F)c(C(=O)Nc2cccc(C(F)(F)F)c2)c1SCc1ccc(Cl)cc1
  VDR inh: -0.9%
73	O=[N+]([O-])c1cc(Cl)c(Cl)c(Cl)c1Cl
  VDR inh: 14.3%
74	N/C(=N\OC(=O)CCC1CCCC1)c1ccc(Cl)cc1
  VDR inh: -1.1%
75	CCN(c1ccc(C)cc1C)S(=O)(=O)c1nnc(NC(=O)C(C)(C)C)s1
  VDR inh: -16.4%

76	Cc1cc(=O)oc2cc(OCCSCCN3CCCC3)ccc12
  VDR inh: 1.1%
77	CS(=O)(=O)c1ccc(-c2sc3ccccc3c2C(=O)N2CCN(c3ccc(F)cc3)CC2)cc1
  VDR inh: -11.9%
78	COc1ccc(C(=O)Nc2cccc(NC(=O)c3ccc(OC)cc3OC)n2)c(OC)c1
  VDR inh: -10.0%
79	CCCCn1c(N)c(N(CC(C)C)C(=O)c2cc(-c3ccc(OC)cc3)nc3ccccc23)c(=O)[nH]c1=O
  VDR inh: 8.3%

Printed as active in VDR inh (from the list above):
32	COc1ccccc1N1CCN(CCn2c(=O)c3c(c4ccccc4n3C)n(C)c2=O)CC1
  VDR inh: 44.7µM*!
40	COc1ccccc1N1CCN(/N=C\C(Br)=C\c2ccccc2)CC1
  VDR inh: 44.7µM*

Source: PubChem (National Center for Advancing Translational Sciences (NCATS))
